Screening results from PubChem.
Menin MLL FP FL: qHTS Assay for Inhibitors Targeting the Menin-MLL Interaction in MLL Related Leukemias: Competition With Fluorescein Labeled MLL-derived Peptide. FP activity change, % at 61.4 µM. Fluorescence polarization, fluorescein-MLL peptide displacement from menin. AID 1766, 2009. 290,000 tested, under 10 active; inconclusive = falling polarisation curve, or a change in total fluorescence; inactive = total fluorescence flat and polarisation flat or rising; no compound was filed as active; the % refers to the polarisation; negative = inhibition;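 also: % of control where 0% means no effect; inhibitors lower the polarisation; unlabelled MLL peptide was the positive control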
ClpP mod: qHTS Assay for Activators of ClpP | ATP-dependent Clp protease proteolytic subunit (Bacillus subtilis (strain 168)), P80244 | AID 651965, 2013 | Potency, µM (series often up to 57.5 µM), inactives show at the highest dose activity change, negative = active | purified B. subtilis ClpP, FRET peptide cleavage, 20 min | 340,000 tested, 1.9% active; active = well fitted falling curve with a large enough effect; inconclusive = small, poorly fitted or top-dose-only effect; inactive = no such curve, though single readings can be large or run the other way; also: potency is read from the fitted curve at half-maximal effect; the source files actives as falling curves though it sought activators and does not explain the sign; nearly all actives have a fitted effect of over 65% in size; many hits overshoot -100%
Target sequence (P80244 whole entry, looked up): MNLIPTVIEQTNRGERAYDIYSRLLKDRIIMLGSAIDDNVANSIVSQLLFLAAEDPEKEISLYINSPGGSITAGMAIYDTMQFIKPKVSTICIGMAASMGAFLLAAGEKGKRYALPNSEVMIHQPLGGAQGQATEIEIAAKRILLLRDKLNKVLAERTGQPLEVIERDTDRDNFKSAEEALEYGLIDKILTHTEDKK
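FRET quenching reversal measured ClpP activation: 10 microg/mL B. subtilis ClpP at pH 8 with the FRET-FV decapeptide, read at 430 nm after 320 nm excitation. The 20-min minus 0-min signal was scaled between DMSO/no-enzyme wells and ADEP (5.8 microM final).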
TRPML1 agonist: qHTS for Agonists of the Human Mucolipin Transient Receptor Potential 1 (TRPML1). activation, % (concentration not given with the values). 410,000 tested, 0.12% active. Mucolipin-1 (Homo sapiens), Q9GZU1. TRPML1-expressing cells, Ca2+ dye fluorescence, FDSS; host cell line not named in the record; reference of the full effect not given here; in the data active = activation above about 50%; inconclusive = about 30% to 50%; inactive = below about 30%; also: 0% is about no effect; the text of the record puts the active cut at 80%
Target sequence (Q9GZU1 whole entry, looked up): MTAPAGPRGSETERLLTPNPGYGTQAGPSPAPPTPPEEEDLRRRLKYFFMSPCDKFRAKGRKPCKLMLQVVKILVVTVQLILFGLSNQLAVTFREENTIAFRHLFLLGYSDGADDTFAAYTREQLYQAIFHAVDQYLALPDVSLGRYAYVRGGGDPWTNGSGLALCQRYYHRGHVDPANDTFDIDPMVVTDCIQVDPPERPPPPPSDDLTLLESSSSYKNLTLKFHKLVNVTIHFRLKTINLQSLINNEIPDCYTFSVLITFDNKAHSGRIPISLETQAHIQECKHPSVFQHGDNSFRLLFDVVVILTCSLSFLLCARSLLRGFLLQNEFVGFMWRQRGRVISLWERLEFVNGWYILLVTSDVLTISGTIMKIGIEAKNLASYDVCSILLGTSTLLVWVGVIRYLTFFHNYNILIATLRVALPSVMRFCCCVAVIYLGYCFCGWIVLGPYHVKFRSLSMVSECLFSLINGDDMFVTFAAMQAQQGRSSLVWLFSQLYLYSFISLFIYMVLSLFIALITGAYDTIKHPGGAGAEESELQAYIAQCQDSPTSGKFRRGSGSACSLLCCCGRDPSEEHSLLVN
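Kinetic FDSS Ca2+ read in Tet-induced TRPML1-DL cells (ABD Ca8 dye plus quencher, 45-90 min RT loading): baseline, then compound, then 110 s agonist window; EC80 agonist 54-4 at 4uM final added afterwards for a 110 s antagonist window.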
gsp antag: qHTS for Antagonists of gsp, the Etiologic Mutation Responsible for Fibrous Dysplasia/McCune-Albright Syndrome: qHTS; gsp-mutant cells, cAMP HTRF, 30 min; control for the full effect not named in the record; Potency, µM (doses to about 76.9 µM), without a hit: at the top dose activity change, negative = inhibition, hits mostly inhibitors; 340,000 tested, 0.4% active; active = falling curve of any shape with a large fitted effect; inconclusive = falling curve, mostly with a smaller effect; inactive = flat or rising curve; cell line not stated here;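 also: intracellular cAMP measured with PDE inhibitor Ro 20-1724 present during compound exposure; potency is read from the fitted curve at half-maximal effect; % is scaled to controls: 0 for no effect and ±100 for the full control effect; nearly all actives have a fitted effect of over 65% in size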
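HTRF cAMP measurement after 30 min RT detection following 30 min, 37C compound treatment alongside […] (added as 300 uM solution) in G418-selected cells seeded at 2000/well and grown 16–24 h.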
TRPML1 blocker: qHTS for Inhibitors of the Human Mucolipin Transient Receptor Potential 1 (TRPML1). activity change, negative = inhibition, % (concentration not given with the values). 390,000 tested, 0.02% active. TRPML1-inducible cells, Ca2+ dye fluorescence, FDSS; stronger effect = lower value; inhibition of EC80 agonist-evoked calcium signal. Mucolipin-1 (Homo sapiens), Q9GZU1; in the data active means activity change below about -50%; inconclusive means about -30% to -50%; inactive means above about -30%;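 also: stimulus is agonist 54-4 at its EC80 concentration; % is scaled to controls: 0 for no effect and ±100 for the full control effect; compound concentration not given in the record; the text of the record puts the active cut at -80%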
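Calcium fluorescence in TRPML1-DL cells induced overnight with Tet: a 110 s read after compound pin addition, then a 110 s antagonist read after challenge with 54-4 at 4 uM final (EC80).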
gsp ag: qHTS for Agonist of gsp, the Etiologic Mutation Responsible for Fibrous Dysplasia/McCune-Albright Syndrome: qHTS; AID 624287, 2012; gsp mutant cells, cAMP HTRF, 30 min; control for the full effect not named in the record; Potency, µM (highest dose often 76.9 µM), for inactives: at the highest dose activation (cAMP increase), actives largely listed as activators; 340,000 tested, 0.13% active; active = well fitted activation curve with a large enough effect; inconclusive = small, poorly fitted or top-dose-only effect, or another doubt; inactive = no such curve, though single readings can be large or run the other way; cell line not stated here;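 also: phosphodiesterase inhibitor Ro 20-1724 added with compounds to block cAMP breakdown; potency is read from the fitted curve at half-maximal effect; nearly all actives have a fitted effect of over 60% in size; about a fifth of the inactives were tested at one dose only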
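Cells stably selected in G418 were plated at 2000/well, grown 16-24 hr, then given compounds in DMSO with the PDE inhibitor […] (300 uM solution added) for 30 min at 37C; cAMP was read by HTRF.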
Numbers without * were called inactive; ? = inconclusive; · = not tested or not shown; & = joins results of further samples; [ ] = another dose, or the depositor's remark.

mol | Menin MLL FP FL | ClpP mod | TRPML1 agonist | gsp antag | TRPML1 blocker | gsp ag
Cc1[nH]c2ccccc2c1C(c1ccccn1)N1CCCC1 (configuration not stated) | -1.0 | · | -0.4 | 2% | 26 | -2%[15.4 µM]
CCCn1c(SCC(=O)Nc2ccc(Cl)cc2F)nc(O)cc1=O | · | -1.1% | 5.0 | -10% | -8 | -44%[inhibitor]
Cc1ccc2cccc(Oc3ncnc4scc(-c5ccc(Cl)cc5)c34)c2n1 | 2.0 | -5.5% | 0.5 | -10% | 37 | 6%
C=Cc1ccc(Cn2c(=O)n(-c3cccc(Cl)c3)c(=O)c3c4c(sc32)CN(C(C)=O)CC4)cc1 | · | -3.0% | 2.1 | · | 25 | ·
CC(=O)c1c(C)[nH]c(C(=O)Nc2cccc(C(F)(F)F)c2)c1C | -4.2 | -1.2% | -0.9 | -15% | 43 | 12%[15.4 µM]
COc1ccc(C(=O)Nc2cnn(Cc3ccc(Cl)cc3)c2)cc1OC | 2.8 | -3.0% | 0.6 | -1% | 11 | 3%
O=C(CSc1oc(-c2cccs2)nc1S(=O)(=O)c1ccccc1)NC1CCCCC1 | 8.3 | -24% | 2.3 | -3% | -4 | -6%
CCOc1ccccc1C(=O)NCC(=O)NNC(=O)c1cccc(S(=O)(=O)Nc2ccc(OC)cc2)c1 | · | -4.8% | 1.7 | 3% | 16 | 4%
O=C(NCc1ccncc1)c1ccc(Br)o1 | 3.6 | -4.1% | 2.0 | 5% | 0 | ?
Cc1nn(CC(=O)N2CCc3ccccc3C2)c(C)c1Cl | · | -1.5% | 1.0 | -16% | -2 | -1%
CN(C)c1ccc(-c2nc3cnccn3c2Nc2cccc(C(F)(F)F)c2)cc1 | · | -24% | 4.0 | · | 36 | ·
O=C1OCc2ccc(NS(=O)(=O)c3ccc(C(F)(F)F)cc3)cc21 | 0.3 | -0.8% | 1.2 | -5% | 0 | -3%
COc1cc(OC)c(C(=O)OCC(=O)NCCc2ccccc2)cc1OC | -0.1 | · | 0.2 | -3% | -5 | -2%[15.4 µM]
COc1ccc(O)c(/C=N/c2sc(C)c(C)c2C#N)c1 | 2.7 | -0.5% | -0.4 | 0% | 12 | 19%
COc1ccc([N+](=O)[O-])cc1NC(=O)/C=C/C(=O)O | 2.7 | -9.5% | -1.1 | 10% | 12 | -24%

Next structures
mol | Menin MLL FP FL | ClpP mod | TRPML1 agonist | gsp antag | TRPML1 blocker | gsp ag
COc1cc2oc(=O)cc(-c3cccc(-c4ccc(C(F)(F)F)cc4)c3)c2c(OC)c1OC | -2.7 | ? | -0.6 | 4% | 11 | ·
CC(C)CNC(=O)CCCc1c[nH]c2ccccc12 | 0.2 | -6.0% | 1.6 | -9% | -11 | 11%
CCOc1ccc(C(C(=O)NC2CCCCC2)N(C(=O)Cc2cccs2)c2ccc(-n3cnnn3)c(OC)c2)cc1 (configuration not stated) | -0.4 | 1.3% | 1.0 | 7% | 12 | 5%
CN(C)Cc1nc2ccccc2c(=O)n1Cc1nc(C(C)(C)C)cs1 | 3.2 | -0.9% | 0.7 | -27% | 8 | 12%[15.4 µM]
O=C(O)C1=C[C@H](c2ccc(Br)cc2)C[C@H](OCCCCO)O1 | -2.5 | -1.4% | -0.4 | 11% | 1 | ·
COc1ccc(N2CCN(C(=O)c3cccs3)CC2)cc1 | -2.7 | 1.2% | -0.1 | -1% | 13 | -3%
CCN(C(=O)Cn1nc(Cc2ccncc2)c2ccccc2c1=O)c1cccc(Cl)c1 | · | -0.9% | 0.7 | · | 12 | ·
Cn1nc(C(F)(F)F)c(C(=O)Nc2ccc(F)cc2F)c1Sc1cccc(C(F)(F)F)c1 | -0.4 | 0.0% | 2.0 | ? | 15 | 0%
COc1ccc(CNC(=O)C2CCCN(S(=O)(=O)c3cnc[nH]3)C2)cc1 (configuration not stated) | 2.7 | 1.3% | -0.3 | 8% | 13 | -99%[inhibitor]
CCOc1cccc(C(=O)Nc2nc3c(s2)CC(C(C)(C)C)CC3)c1 (configuration not stated) | · | ? | 0.4 | · | -9 | ·
Cc1ccnc(NC(=O)c2sc3ccccc3c2Cl)c1 | -0.4 | -17% | 1.4 | 8% | -21 | 24%
CC(C)NC(=O)Nc1ccc2c(c1)C(=O)N([C@H](C)CO)C[C@H](C)[C@@H](CN(C)S(C)(=O)=O)O2 | · | 0.3% | -0.6 | 8% | -9 | ?
CCn1c(CN2CCN(C)CC2)nc2cc(NC(=O)c3cc(OC)c(OC)c(OC)c3)ccc21 | · | -3.5% | -0.1 | · | -4 | ·
C/C(=N\NC(=O)c1nn(C)c(C)c1Br)c1ccc(NC(=O)c2ccc(C)s2)cc1 | 8.4 | · | -0.7 | -16% | -1 | 2%
O=[N+]([O-])c1cc(S(=O)(=O)O)cc([N+](=O)[O-])c1NN(c1ccccc1)c1ccccc1 | 0.4 | · | 0.1 | 8% | 11 | -1%

Next part.
mol | Menin MLL FP FL | ClpP mod | TRPML1 agonist | gsp antag | TRPML1 blocker | gsp ag
CC(=O)N(Cc1ccccc1)c1nc(-c2ccccc2)cs1 | 5.1 | -2.0% | 3.1 | -6% | 12 | -35%
Cc1cc(C)c2cc(C#N)c(NCCCNC(=O)CCC(=O)O)nc2c1 | -0.9 | ? | -0.5 | 12% | -1 | 15%
O=C(Nc1ccc(O)c2c(=O)cc(-c3ccccc3Cl)oc12)c1ccc(Cl)cc1Cl | 3.2&4.3 | 0.0% | 0.9&-1.2 | -3% | 5&11 | 1%
c1ccc(-c2nc(NCCCN3CCOCC3)c3ccccc3n2)cc1 | 5.5 | -1.5% | -0.8 | -23% | -1 | 10%
O=C(NCC1CCCO1)c1ccc(CS(=O)(=O)c2ccc(Br)cc2)o1 (configuration not stated) | -1.5 | -0.4% | 0.0 | 9% | 2 | -16%
O=C(NCC1CCCO1)C(c1cccnc1)N(C(=O)Cc1cccs1)c1cccnc1 (configuration not stated) | -4.3 | -0.1% | -0.1 | 3% | -7 | -30%
Cc1cccc(NC(=O)C2CCN(S(=O)(=O)c3c(C)nn(C)c3C)CC2)n1 | 0.3 | -1.3% | -0.5 | 2% | -4 | ?
Cc1ccccc1C(=O)Nc1ccccn1 | -0.5 | -2.5% | 0.0 | 5% | 5 | 12%
CNC(=O)CN(c1ccc(OC)cc1)S(=O)(=O)c1ccc(F)cc1 | -0.2 | 0.5% | -0.2 | 10% | -13 | 10%
Cc1ccc(-n2ncc3c(N4CCCC(C)C4)ncnc32)c(C)c1 (configuration not stated) | -1.6 | -0.6% | -1.5 | ? | 42 | -62%[inhibitor]
CC1(C)CC2CC(C)(CN2C(=S)NC(=O)c2ccccc2Cl)C1 (configuration not stated) | -1.9 | 0.5% | 0.8 | 2% | 28 | -3%
Cc1ccc(S(=O)(=O)N2CCN(c3ccnc4cc(Cl)ccc34)CC2)cc1C | -6.1 | · | 0.7 | ? | -2 | -10%
CCC(=O)Nc1ccc(C(=O)N/N=C/c2ccccc2[N+](=O)[O-])cc1 | 3.0 | 4.1% | 0.3 | 5% | 3 | -2%
COc1ccc(NC(=O)N2CCCC2C(=O)NCc2ccccc2Cl)cc1 (configuration not stated) | -7.6 | -0.5% | -0.1 | 3% | -5 | -4%[15.4 µM]
CCc1nnc(NC(=O)C2CCCN(S(=O)(=O)c3ccccc3)C2)s1 (configuration not stated) | 2.5 | 1.6% | 0.6 | -14% | 3 | -3%

In the list so far, two have a cyano group:
mol | Menin MLL FP FL | ClpP mod | TRPML1 agonist | gsp antag | TRPML1 blocker | gsp ag
COc1ccc(O)c(/C=N/c2sc(C)c(C)c2C#N)c1 | 2.7 | -0.5% | -0.4 | 0% | 12 | 19%
Cc1cc(C)c2cc(C#N)c(NCCCNC(=O)CCC(=O)O)nc2c1 | -0.9 | ? | -0.5 | 12% | -1 | 15%

Continuation.
mol | Menin MLL FP FL | ClpP mod | TRPML1 agonist | gsp antag | TRPML1 blocker | gsp ag
CCOc1ccc(NC(=O)Cn2nc(CC)n3c(cc4sccc43)c2=O)cc1 | · | -0.1% | -0.5 | · | -6 | ·
COc1ccc2nc(N3CCN(C(=O)c4ccc([N+](=O)[O-])o4)CC3)sc2c1 | · | · | -0.5 | -28% | -10 | -13%[15.4 µM]
COc1cc(OC)c2c(C)c(CC(=O)NCc3ccccc3OC)c(=O)oc2c1 | · | 3.9% | 0.0 | · | -12 | ·
CCN1CCN(C(=O)C2CCN(c3nnc(-n4c(C)ccc4C)s3)CC2)CC1 | -3.7 | 4.4% | 0.3 | 6% | -19 | 6%
C=CCN1C(=O)C2(NNc3ccccc3O2)c2ccccc21 (configuration not stated) | ? | -5.7% | 8.3 | 6% | 10 | -21%
COc1ccc(C2CC(c3ccccc3)Oc3c(C)ccc(C)c32)cc1 (configuration not stated) | -5.2&-3.7 | · | 0.2&1.6 | · | 20&46 | ·
C[C@@H]1CN([C@@H](C)CO)S(=O)(=O)c2ccc(Br)cc2O[C@@H]1CN(C)C(=O)C1CC1 | · | -0.9% | -0.2 | · | 15 | -86%[inhibitor]
CCOc1ccc(NS(=O)(=O)c2ccc(C(=O)NCC(C)(C)N3CCOCC3)cc2)cc1 | · | -0.7% | -0.5 | 8% | -10 | -24%
O=C(Cc1c(F)cccc1Cl)NCC(=O)OCc1ccccc1 | · | · | 0.5 | 0% | 20 | 5%[15.4 µM]
CCn1nnnc1SCC(=O)Nc1nc(-c2cccs2)cs1 | 7.8 | -1.3% | 2.5 | 1% | -20 | -19%
O=C(NCc1ccccc1)C(c1c(F)cccc1Cl)N(C(=O)c1csnn1)C1CC1 (configuration not stated) | ? | · | 0.3 | -13% | -3 | 21%
CC(=O)Nc1cccc(/C(C)=N/NC(=O)c2cc(-c3ccncc3)nc3ccccc23)c1 | 0.1 | · | 1.2 | -8% | -11 | -10%[15.4 µM]
O=[N+]([O-])c1cc(-c2nc(-c3ccco3)no2)ccc1NCc1ccccc1 | · | 2.0% | -0.7 | · | -15 | ·
Cc1ccc(NC(=O)CC(=O)Nc2ccc(C)c(C)c2)cc1C | -0.1 | · | 1.3 | ? | -12 | 10%[15.4 µM]
CCOC(=O)c1ccc(NC(=S)N2CCN(C(=O)C3CCCO3)CC2)cc1 (configuration not stated) | · | 0.0% | 0.0 | 1% | 13 | ?
COc1cccc2cc(C(C)=O)c(=O)oc12 | 0.8 | 0.2% | -0.4 | -7% | -11 | -25%
Cc1cccc(OCC(=O)Nc2ccc(NC(=O)c3ccco3)cc2)c1 | 0.4 | · | 0.5 | 1% | 11 | 4%
